BJeLR viability – BJeLR cell viability loss; BJeLR (HRASV12) viability, CellTiter-Glo ATP luminescence, 48 h; reference of the scale not given here; inhibition, % (test concentration not listed); actives 0.17% (n = 300,000);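 active = replicate mean above 50%; inconclusive = above 50% but judged a plate artefact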;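 note: 50 nL library stock added to about 25 µL; numbers are from one replicate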
ugtP null kill – growth inhibition of S. aureus ugtP deletion strain. S. aureus RN4220 ugtP deletion, OD600 growth, 16 h; some inactives read as strong as hits. growth inhibition, % (no concentration beside the values). actives 0.54% (n = 330,000). AID 1259309;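 active = z-score under -3 and OD600 up to 0.15 on both plates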;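 note: plate controls were untreated wells for no effect and antibiotic for full effect; wells of about 80 µL received 100 nL stock; the first replicate is given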
RN4220 kill – kills Staphylococcus aureus RN4220. actives 0.33% (n = 330,000). S. aureus RN4220 growth, OD600, 16 h. inhibition, % (test concentration not listed);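 active = z-score of -3 or lower and OD600 up to 0.18 on both plates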;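 note: plate controls were untreated cells for no effect and reference antibiotic for full effect; stock transfer was 100 nL into about 80 µL; one replicate is shown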
Autofluor counter – counter-screen for toxin protease inhibitors: compound fluorescence. compound autofluorescence counterscreen, microsphere flow cytometry; hits give high values. fluorescence intensity (test concentration not listed). actives 3.1% (n = 360,000);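 active = at least 3 SD above the mean of all compounds, about 16000 in these data; inconclusive = too few beads counted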;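 note: 100 nL of 1 mM stock went into each well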
Mtb hypoxia rep – Mtb hypoxia fluorescent reporter inhibition; M. tuberculosis hypoxia-regulated fluorescent reporter, fluorescence; fluorescence inhibition, % (test concentration not listed); actives 0.1% (n = 300,000); AID 1159583;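 active = 35 to 45% if threefold the growth effect, above 45% if 1.5-fold the growth effect; inactive = the rest, general growth blockers included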;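 note: wells of about 50 µL received 100 nL stock; 0% = vehicle wells and 100% = reference inhibitor wells; whole bacteria with a GFP reporter of the hypoxia response; strong numbers were not always called active; many hits fall short of the cut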
PrP UTR inh – inhibition of PrP 5' UTR reporter expression; inhibition, % (concentration not given with the values); cell-based PrP 5' UTR mRNA reporter, plate reader; actives 0.35% (n = 340,000); AID 488862;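 active = every replicate at 50% or more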;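 note: 0 = median of the neutral control wells; tested in H4 reporter cells; numbers are from one replicate; inactives centre near -14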
Mtb hypoxia rep growth – recorded beside Mtb hypoxia rep, whose call it bears; growth inhibition, %; measured here: M. tuberculosis growth (absorbance);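 0% = vehicle and 100% = reference antibiotic; read after six days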
* marks the source's active call; other numbers are inactive results; ? = inconclusive; · = not tested or not shown.

SMILES	BJeLR viability	ugtP null kill	RN4220 kill	Autofluor counter	Mtb hypoxia rep	Mtb hypoxia rep growth	PrP UTR inh
CCC1Sc2ccc(S(=O)(=O)Nc3ccc(OC)c(OC)c3)cc2NC1=O (configuration not stated)	20	1	7.9	6462	-4	-2	-20
CC(=O)Oc1ccc(N(C(C)=O)S(=O)(=O)c2cc([N+](=O)[O-])ccc2C)cc1	-5	1	7.2	2445	-3	1	-13
CCN(C(=O)COC(=O)CCC(=O)c1cccs1)c1c(N)n(Cc2ccccc2)c(=O)[nH]c1=O	-6	15	2.4	6682	7	6	-20
Cc1ccc(/C=C/C(=O)OCC(=O)NCc2ccc(Cl)cc2)o1	·	-1	-4.2	3980	-1	3	0
CCn1c(SCC(=O)Nc2nc3c(s2)CCCC3)nnc1-c1ccccc1	7	5	23	11210	5	9	-20
O=C(Nc1nc2ccccc2s1)c1cc2c(s1)-c1ccccc1OC2	-6	3	-1.1	5232	·	·	-60
COc1ccc(NC(=O)/C(C#N)=C\c2cc(OC)c(OCc3ccc(C(=O)O)cc3)cc2Br)cc1	-7	·	·	2236	·	·	-28
O=C(Cn1cnc([N+](=O)[O-])n1)NC1CC1	3	15	4.0	4736	14	15	-21
Cc1ccc(/C(O)=C2\C(=O)C(=O)N(CCc3c[nH]c4ccccc34)C2c2cccnc2)cc1 (configuration not stated)	-1	0	5.7	4640	2	8	-13
Cc1[nH]c2ccc(C(C)C)cc2c1CC(=O)O	-10	3	6.0	3878	8	-3	-18
CC(C)NC(=O)c1ccc(C2SCC(=O)N2Cc2ccccc2)cc1 (configuration not stated)	-3	5	5.4	9184	6	4	-9
CCN(CC)C(=O)Cn1cnc2sc(C(=O)N3CCN(Cc4ccc5c(c4)OCO5)CC3)c(C)c2c1=O	19	19	-2.4	4233	-4	1	-21
O=C(Nc1ccc(OCc2ccccc2)cc1)Nc1ccccc1C(=O)NCCCN1CCOCC1	17	11	-1.2	4298	9	14	-24
N#C/C(=C\c1ccccc1Br)C(=O)NC1CC1	-8	-6	24	5127	13	39	-17
Cc1c(C(=O)N(C)CCCCN2CCOCC2)oc2c(F)cccc12	-15	7	5.8	3733	-4	-2	-11
O=C1NC(Cc2ccccc2)C(=O)N1CC(=O)N1CCCc2ccccc21 (configuration not stated)	4	-10	-1.0	4504	-11	-15	-22
Cc1ccc(C(C)C)c(OCC(=O)OCC(=O)NC2CCS(=O)(=O)C2)c1 (configuration not stated)	-6	0	2.5	4479	1	-5	-15
NC(=O)C1CC2(CC(c3cccc(NC(=O)COc4ccc(Cl)cc4)c3)=NO2)CN1C(=O)CC(c1ccccc1)c1ccccc1 (configuration not stated)	·	1	-4.9	·	7	5	·
C/C(=N/NC(=O)c1ccncc1)c1c[nH]c2ccccc12	-1	·	·	2194	·	·	-19
O=C(O)CCn1cc(/C=C\C(=O)c2ccc(Cl)cc2)c(-c2cccc(Br)c2)n1	-5	6	15	8617	2	5	-29
CCN(C(=S)Nc1ccc(Oc2ccccc2)cc1)c1ccccc1	-5	26	-1.6	2273	1	5	-3
CN(c1cccc(NC(=O)CN(c2cccc(Cl)c2)S(=O)(=O)c2ccccc2)c1)S(C)(=O)=O	1	6	5.6	1887	7	7	-17
Cc1ccc(OCC(=O)Nc2ccncc2)c(C)c1	7	·	·	3525	·	·	-27
COc1cc(/C=C/C(=O)OCC(=O)Nc2cc(S(=O)(=O)N(C)C)ccc2Cl)ccc1O	1	10	4.6	4660	3	5	-10
COc1ccc(N/C=C/C(=O)c2ccc(Cl)cc2)cc1	-16	0	6.0	2190	3	-8	-133

New compounds follow:
SMILES	BJeLR viability	ugtP null kill	RN4220 kill	Autofluor counter	Mtb hypoxia rep	Mtb hypoxia rep growth	PrP UTR inh
O=C(C1CCC(=O)N(C2CCCC2)C1)N1CCN(Cc2cccc(F)c2)CC1 (configuration not stated)	0	2	2.7	5506	0	-2	-1
c1ccc2sc(N3CCCCC3)nc2c1	·	7	13	3128	21	9	-106
O=C(C1CCCO1)N1CCC(c2nc3ccccc3[nH]2)CC1 (configuration not stated)	-1	2	0.1	9968	14	9	·
Cc1cc(C(=O)N/N=C/c2cc(Br)ccc2OC(=O)c2ccccc2Cl)n[nH]1	-9	·	·	3973	·	·	-6
NC(=O)c1ccc(NC(=O)Cc2ccc(S(=O)(=O)N3CCCCC3)cc2)cc1	·	5	0.6	4346	1	0	-12
CCN(CC)C(=O)Cn1cc(C(=O)C(=O)N2CCN(Cc3ccc4c(c3)OCO4)CC2)c2ccccc21	-15	15	-2.8	5259	4	0	-1
CSCC[C@H](NC(=O)c1cc2c([nH]c3ccccc32)c(-c2ccccc2)n1)C(=O)O	-5	-3	7.2	3879	4	6	-16
O=C(NCc1ccccc1)c1cccc(COc2cc(Cl)ccc2Cl)c1	13	-4	10	2155	5	8	-60
O=C(N/N=C\c1c(O)ccc2ccccc12)c1ccc(S(=O)(=O)N2CCCCC2)cc1	77*	·	·	3033	·	·	53
O=C1/C(=C\c2cccnc2)CCc2ccccc21	-17	6	19	3165	7	-11	-13
Cc1cc2n(n1)C(c1sccc1C)Nc1c(C)cccc1-2 (configuration not stated)	0	11	2.0	4199	13	9	8
Cc1ccc2nc(-c3ccccn3)cc(C(=O)Nc3ccc(S(=O)(=O)N4CCOCC4)cc3)c2c1	3	-1	-4.0	3364	-4	1	-13
COc1cc(/C=C2/S/C(=N/S(=O)(=O)Cc3ccccc3)NC2=O)c([N+](=O)[O-])cc1OC	-9	6	4.0	3582	-18	-3	-10
COc1cccc(CN2CCN(C(=O)COc3ccc4ccccc4c3)CC2)c1	6	-25	-4.4	6514	·	·	-9
Cc1ccc(C(=O)N/C(=C\c2sccc2C)C(=O)NCc2ccco2)cc1	9	9	1.4	2480	0	-5	-2
CCc1cccc(OCCOC(=O)CNS(=O)(=O)c2ccc(NC(C)=O)cc2)c1	·	7	1.4	5450	8	3	-40
CCCCC(=O)N1C/C=C\C(c2ccc(OC)cc2)N(Cc2ccc(F)cc2)C(=O)C1 (configuration not stated)	-1	·	·	4135	·	·	-29
CCCn1c(SC(C)C(=O)NC2CCCC2)n[nH]c1=O (configuration not stated)	·	-2	-1.7	·	-7	-4	-6
CC(C)CC(NC(=O)c1[nH]cnc1C(=O)NC(C)C(=O)OCc1ccccc1)C(=O)OCc1ccccc1 (configuration not stated)	·	13	4.0	·	5	4	·
CCN(C(=O)COC(=O)C1CCN(S(=O)(=O)c2ccc(C)c(C)c2)CC1)C1CCCCC1	·	-1	0.7	4094	11	9	-8
Cn1nc(-c2ccccc2)c2cc([N+](=O)[O-])ccc21	6	4	4.2	·	-3	3	-16
Cc1ccccc1C(=O)Nc1ccc(C(=O)NN=Cc2ccc(O)c(Br)c2)cc1	·	-6	-1.5	·	10	7	·
CC(C)=CCc1ccc(O)c(=O)cc1C(C)C	·	-5	3.5	3746	-1	-3	28
CCCc1nc2c(sc3nc4c(cc32)COC(C)(C)C4)c(=O)n1CCN(CC)CC	11	6	11	4351	3	5	-25
Cn1cccc1/C=C1\SC(=S)N(NC(=O)c2ccc(F)cc2)C1=O	-2	-13	6.0	4599	4	1	-26

An excerpt from above, showing only Mtb hypoxia rep growth, BJeLR viability and Autofluor counter:
mol	Mtb hypoxia rep growth	BJeLR viability	Autofluor counter
CCN(CC)C(=O)Cn1cc(C(=O)C(=O)N2CCN(Cc3ccc4c(c3)OCO4)CC2)c2ccccc21	0	-15	5259
CSCC[C@H](NC(=O)c1cc2c([nH]c3ccccc32)c(-c2ccccc2)n1)C(=O)O	6	-5	3879
O=C(NCc1ccccc1)c1cccc(COc2cc(Cl)ccc2Cl)c1	8	13	2155

(listing goes on)
SMILES	BJeLR viability	ugtP null kill	RN4220 kill	Autofluor counter	Mtb hypoxia rep	Mtb hypoxia rep growth	PrP UTR inh
CCc1ccc(NC(=O)C(=O)NNC(=O)c2cccs2)cc1	1	8	0.0	5776	-1	-3	-22
Cc1c(C(=O)N2CCN(C)CC2)oc2c1C(=O)CC(C)(C)C2	-6	4	3.5	21465*	6	12	-11
Cc1cccc(NC(=O)c2cc(S(=O)(=O)N3CCOCC3)cn2C)c1C	-3	-3	0.9	5597	1	4	-1
Cc1cc(C)c2oc(-c3ccc(C)c(NC(=S)NC(=O)/C=C/c4ccco4)c3)nc2c1	-14	0	-3.8	2335	·	·	-27
CN(C)c1nc(C#N)nc(N(C)C)n1	2	3	8.1	4682	0	-8	-14
O=C1CC(c2ccco2)CC(O)=C1C=NCC1NCCc2ccccc21 (configuration not stated)	-9	-2	6.0	5099	·	·	4
CCN(CC)CC(=O)NC12CC3CC(CC(C3)C1)C2	17	5	-3.5	2209	·	·	-12
Cc1ccccc1Cn1c(=N)n(CC(=O)c2ccc([N+](=O)[O-])cc2)c2ccccc21	·	-14	2.8	2230	5	-2	7
COc1cc(N2CCCC2)ccc1[N+](=O)[O-]	-13	1	4.2	2445	8	9	-17
O=C(Cn1nnc2ccccc2c1=O)Nc1ccc2c(c1)CCC2	11	5	4.8	8223	2	5	2
COc1ccc(C(=O)Nc2nccs2)cc1[N+](=O)[O-]	0	1	3.9	1982	-1	2	-25
COc1ccc(CN2CCN(c3ccccc3F)CC2)c(OC)c1	5	1	-0.8	·	6	0	·
COc1cc(/C=C/C(=O)OCC(=O)Nc2ccc(S(=O)(=O)N3CCCC3)cc2)ccc1O	-20	-14	4.0	2015	-3	-1	-1
CC(=NNC(=O)CNC(=O)C(c1ccccc1)c1ccccc1)c1ccccc1	·	6	3.5	·	5	0	·
CN(C)C(CNC(=O)c1ccc(NC(=O)CC#N)cc1)c1ccccc1 (configuration not stated)	9	3	4.9	4019	6	5	-24
COc1cccc(C(=O)NNC(=O)c2ccccc2)c1	-1	1	1.4	3634	-5	5	-28
O=S(=O)(Nc1ccc(-n2cccc2)cc1)c1ccccc1	-10	-11	3.2	3728	5	8	-30
COc1ccc(/C=C/C(=O)Oc2ccc(C)c(C)c2)cc1OC	-5	9	12	2508	-7	10	-19
Cc1c(C(=O)C(=O)N2c3ccc(F)cc3CCC2C)c2ccccc2n1C (configuration not stated)	6	-6	2.4	2108	9	4	-11
N#CCCCn1c(=O)oc2ccccc21	-4	2	4.2	2615	0	-3	-7
COc1ccc(C(=O)NC(CCSC)C(=O)NC2CC2)cc1 (configuration not stated)	·	-1	3.0	?	5	12	0
Cc1ccc(NC(=S)N2CCN(c3ccccc3F)CC2)c(C)c1	-6	1	-3.2	3988	1	15	-20
Oc1c(Cl)cc(CN2CCOCC2)c2cccnc12	·	10	1.4	8861	13	3	-7
Cc1cccc(N(Cc2cc3ccccc3[nH]c2=O)C(=O)c2cccs2)c1	1	10	3.5	4031	21	-2	-5
CCCC(C)(C)NC(=O)CCCCC(=O)NC(C)(C)CCC	-2	1	-0.4	3775	11	1	-1

Continuation:
SMILES	BJeLR viability	ugtP null kill	RN4220 kill	Autofluor counter	Mtb hypoxia rep	Mtb hypoxia rep growth	PrP UTR inh
Cc1nn(C)c(C(=O)NN=Cc2ccccn2)c1[N+](=O)[O-]	·	0	2.7	·	-3	1	·
O=C(NC(=S)Nc1ccc(Cc2ccncc2)cc1)c1ccccc1	7	42	-0.1	2036	1	14	-25
CC(C)OC(=O)c1cc(NC(=S)Nc2ccc([N+](=O)[O-])cc2)cc(C(=O)OC(C)C)c1	-5	100*	100*	3063	13	15	-3
C=CCN1c2ccccc2[C@]23C[C@@H](C(=O)OC)N=C2NC(C(=O)OC)=C(C(=O)OC)[C@H]13	7	·	·	4061	·	·	-28
CCCS(=O)(=O)N1CCN(Cc2ccc3c(c2)c2ccccc2n3CC)CC1	-11	-7	5.5	2094	41*	-2.9*	-17
COc1cccc(C(=O)N2CCn3c2nc2ccccc23)c1	5	4	2.3	3989	-1	-6	-43
Cc1nnc(NC(=O)CC(C)c2ccccc2)s1 (configuration not stated)	-3	5	-2.8	3904	19	15	-20
CCc1nc2c(C#N)c(-c3ccc(Cl)cc3)ccn2n1	6	6	0.2	3840	8	8	-10
Cc1ccc2c(CC(=O)NC3CCS(=O)(=O)C3)coc2c1C (configuration not stated)	-4	-1	0.4	5366	1	7	-7
Cc1ccsc1/C=N/NC(=O)C(O)c1ccccc1 (configuration not stated)	0	·	·	4101	·	·	-24
CCCNC(=O)N1CCC(c2nc3ccccc3s2)CC1	7	0	2.1	3905	9	9	-11
Cc1ccc(S(=O)(=O)N(Cc2ccc(C(F)(F)F)cc2)C(=O)N2CCN(C)CC2)cc1	10	3	0.8	6277	0	8	-7

Screening data as filed in PubChem.
